Bioassay records deposited in PubChem by National Center for Advancing Translational Sciences (NCATS).
Cruzain Triton – blocks cruzain activity in presence of Triton detergent; P25779; purified cruzain, Z-FR-AMC fluorescence, 0.01% Triton; Potency, µM, for the others: max response, negative = inhibition, hits mostly inhibitors; 0.43% of 200,000 active; active means well fitted curve in the direction sought with a large enough effect; inconclusive means small, poorly fitted or top-dose-only effect, or another doubt; inactive means no such curve, though single readings can be large; an effect the other way counts as inactive or inconclusive;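 further: plate controls were neutral wells for no effect and buffer without enzyme for full effect; nearly all actives have a fitted effect of over 40% in size; top concentration of the series not given in the record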
Target sequence (P25779 123-467 limits assumed): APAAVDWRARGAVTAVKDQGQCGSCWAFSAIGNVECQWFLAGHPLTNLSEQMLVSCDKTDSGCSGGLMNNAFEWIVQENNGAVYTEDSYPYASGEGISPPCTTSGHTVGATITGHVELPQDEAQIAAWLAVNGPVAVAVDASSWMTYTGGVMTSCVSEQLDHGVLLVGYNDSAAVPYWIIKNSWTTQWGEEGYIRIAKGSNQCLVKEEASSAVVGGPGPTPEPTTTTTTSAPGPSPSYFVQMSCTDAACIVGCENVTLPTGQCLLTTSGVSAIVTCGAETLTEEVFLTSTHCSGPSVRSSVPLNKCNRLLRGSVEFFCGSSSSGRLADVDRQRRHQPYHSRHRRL
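Read-out: AMC fluorescence (360 nm excitation, 450 nm emission), four reads over 2 min, first-to-third difference used. Conditions: cruzain 1.5 nM, Z-FR-AMC 2 uM, pH 5.5 acetate, 5 mM DTT, 0.01% Triton X-100.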
SARS PLpro yeast – SARS-CoV PLP inhibition in yeast | S. cerevisiae expressing SARS-CoV PLpro, growth rescue; control for the full effect not named in the record | Potency, µM (titrated, usually from 32.9 µM), inactives show top-dose activity, positive = growth rescue | 0.19% of 330,000 active | AID 485353; further: 0% is about no effect; nearly all actives have a fitted effect of over 55% in size; growth read by luminescence after 48 h
MARV entry inh – blocks Marburg virus binding to or entry into cells. 1.8% of 300,000 active. Potency, µM (doses to about 37.8 µM), for the others: top-dose activity change, negative = inhibition, hits mostly inhibitors. AID 540276. Marburg virus pseudotyped entry inhibition, cell reporter; control for the full effect not named in the record; about a third of the inactives were read at about 46 µM; active = well fitted inhibition curve with a large enough effect; inconclusive = small, poorly fitted or top-dose-only effect, or effect the other way; inactive = flat fitted curve, though single readings scatter; tested in HEK293 cells; about a fifth of its hits are not listed in these tables; further: on the % scale 0 is the no-effect control and ±100 the full control effect; luciferase read-out
Lassa entry inh – blocks Lassa virus binding to or entry into cells. Lassa virus pseudotype entry inhibition, cell reporter; control for the full effect not named in the record. 1.2% of 300,000 active. Potency, µM (titrated, usually from 37.9 µM), inactives show at the top dose activity change, negative = inhibition, actives largely listed as inhibitors; active means well fitted inhibition curve with a large enough effect; inconclusive means small, poorly fitted or top-dose-only effect, or effect the other way; inactive means flat fitted curve, though single readings scatter; tested in HEK293 cells; further: on the % scale 0 is the no-effect control and ±100 the full control effect; nearly all actives have a fitted effect of over 50% in size; luciferase read-out
RE007 growth inh – less growth of the S. pombe RE007 Vpr strain; S. pombe RE007 Vpr strain, BacTiter-Glo ATP luminescence, 24 h; control for the full effect not named in the record; Potency, µM (highest dose often 92.2 µM), for inactives: at the top dose activity change, negative = less growth; 0.21% of 360,000 active; active = well fitted falling curve with a large enough effect; inconclusive = small, poorly fitted or top-dose-only effect; inactive = no such curve, though single readings can be large or run the other way;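 further: on the % scale 0 is the no-effect control and ±100 the full control effect; nearly all actives have a fitted effect of over 50% in size; the assay follows cell death caused by Vpr and the record does not say whether a fall means rescue or toxicity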
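Fission yeast RE007 carrying one integrated HIV-1 vpr copy, seeded at OD 0.01 in PMG+AL medium with 23 nL pinned compound. Grown 24 h at 30 degrees; viability read by BacTiter-Glo luminescence after 5 min.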
Cruzain inh noDet – inhibitors of Trypanosoma cruzi cruzain without detergent; P25779; purified cruzain, Z-FR-AMC fluorescence, no detergent; Potency, µM, without a hit: max response, negative = inhibition, actives largely listed as inhibitors; 2.3% of 200,000 active; active means well fitted curve in the direction sought with a large enough effect; inconclusive means small, poorly fitted or top-dose-only effect, or another doubt; inactive means no such curve, though single readings can be large; an effect the other way counts as inactive or inconclusive;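 further: plate controls were enzyme without inhibitor for no effect and buffer without enzyme for full effect; nearly all actives have a fitted effect of over 40% in size; top concentration of the series not given in the record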
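Detergent-free condition (0.00005% Triton X-100) in acetate buffer pH 5.5 with DTT. 1.5 nM enzyme and compound were pre-mixed 15 min, then 2 uM Z-FR-AMC substrate added; reaction progress from fluorescence change between first and third reads (60 s).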
2A StopGo – lowers the luciferase signal of an FMDV 2A StopGo reporter; Potency, µM (titrated, usually from 57.9 µM), for inactives: at the top dose signal change, negative = less light; AID 1159524; human cells with a luciferase reporter of 2A StopGo recoding; control for the full effect not named in the record; 1.2% of 410,000 active; active = well fitted falling curve with a large enough effect; inconclusive = small, poorly fitted or top-dose-only effect; inactive = no such curve, though single readings can be large or run the other way; tested in HEK293T cells; further: on the % scale 0 is the no-effect control and ±100 the full control effect; nearly all actives have a fitted effect of over 45% in size; luciferase light after 4 h
NS1 inh – blocks influenza NS1 protein function | AID 2326 | S. cerevisiae slowed by influenza A NS1, growth recovery by OD600 | 0.4% of 270,000 active | Potency, µM (doses to about 46.1 µM), inactives show top-dose activity, positive = more growth; further: actives are rising curves; nearly all actives have a fitted effect of over 50% in size
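Read-out: OD600 growth recovery of NS1-expressing budding yeast. Cells grown overnight at 30C in -URA glucose medium, washed, resuspended and diluted 1:100 in 2% galactose assay medium, pH 6.0. Same strain lacking NS1 served as positive control.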
* hit, by the source's call; ? = inconclusive; · = not tested or not shown; [ ] = remark or other dose. Unless noted, the call rests on the fitted dose curve; in most records, active means well fitted rising curve with a large enough effect; inconclusive means small, poorly fitted or top-dose-only effect; inactive means no such curve, though single readings can be large or run the other way. Potency means the concentration at half of the fitted maximal effect.

SMILES | Cruzain Triton | SARS PLpro yeast | MARV entry inh | Lassa entry inh | RE007 growth inh | Cruzain inh noDet | 2A StopGo | NS1 inh
COc1ccc(/C(C)=N/N=C(N)N)c(OC)c1 | · | 0.0% | · | · | -1.9% | · | 0.0% | 4.3%
CC(C)c1nc(N2CCN(C(=O)c3ccco3)CC2)c2c3c(sc2n1)CCCC3 | -8.8% | -30.8% | 18.3µM* | ? | 7.5% | ? | · | -70.1%
Cc1cc2cc(C=C(C#N)C#N)c(Cl)nc2cc1C | ? | -16.9% | ? | -5.9% | · | 22.4% | ? | -12.3%
Cc1ccccc1NC(=O)Cc1nc(COC(=O)C(NC(=O)c2ccccc2C)C(C)C)cs1 (configuration not stated) | · | -4.9% | 19.4% | -14.4% | 19.0% | · | ? | ·
CCCCNC(NCCCC)=C(S(=O)(=O)CC)S(=O)(=O)CC | 0.9% | -0.6% | 10.4% | 23.7% | -1.7% | 6.2% | -6.0% | 7.6%
COCCSc1ccccc1C(=O)N1CCc2ccccc2C1 | · | 0.2% | 12.0%[46.1 µM] | 15.3% | -17.5% | · | 9.4% | -4.4%
OCCC1CN(Cc2cccnc2)CCN1CCc1ccccc1 (configuration not stated) | · | 0.2% | 4.5%[46.1 µM] | 15.1%[46.1 µM] | 1.4% | · | -11.9% | -1.1%
CCN(C(=O)COC(=O)C1CCN(S(=O)(=O)c2cccs2)CC1)c1ccccc1 | · | 0.2% | 25.2%[46.1 µM] | 1.2% | -1.7% | · | 16.6% | ·
COCCCNC(=S)Nc1cc(C)c(C)cc1C | · | -1.0% | 4.0%[46.1 µM] | 1.6%[46.1 µM] | -0.1% | · | 10.6% | 1.4%
CCOC(=O)c1ccc(NC(=O)c2cc(=O)[nH]c3ccccc23)cc1 | · | 0.0% | · | · | 4.0% | · | 12.5% | 5.4%
CNS(=O)(=O)c1cccc(C(=O)OCc2csc(-c3ccccc3)n2)c1 | -6.6% | 8.0% | ? | ? | -7.7% | -2.8% | -11.2% | 7.0%
COc1ccc(CCNC(=O)C2CCN(S(=O)(=O)c3ccc(-n4cnnn4)cc3)CC2)cc1OC | -4.5% | -4.7% | 0.5% | 16.1% | -1.5% | 22.1% | -5.7% | 0.8%
O=C(CCOc1cccc(Br)c1)NNC(=O)COc1ccc(F)cc1 | · | 0.4% | 24.7% | 4.7% | 4.6% | · | -11.3% | ·
Cc1ccc(C(=O)Nc2c(-c3ccccc3)nc3ccccn23)cc1C | -3.0% | · | 7.8%[46.1 µM] | -0.9%[46.1 µM] | · | -2.5% | 1.9% | ·
CCOC(=O)Cn1nc(-c2ccc(Cl)cc2)cc1N | 2.9% | -7.7% | 3.1% | 7.8% | 1.1% | 2.8% | 21.9% | 5.7%
CN(C)c1ccc(-c2ccncc2)cc1 | -3.0% | 1.3% | -4.0% | · | · | -11.2% | · | -8.1%
CCOc1ccccc1N1CN(Cc2ccccc2)CNC1=S | · | 3.4% | ? | ? | 0.1% | · | -8.7% | -7.5%
Cn1c(=O)oc2cc(S(=O)(=O)NCCCN3CCCC3=O)ccc21 | -0.1% | 3.3% | · | · | -6.1% | -10.2% | -4.1% | 1.8%
O=C(Nc1nn[nH]n1)C12CC3CC(CC(C3)C1)C2 | 7.0% | 14.2% | -11.9% | 2.8% | 11.7% | -18.3% | · | 10.6%
Cc1c(CCOC(=O)c2cc([N+](=O)[O-])ccc2Cl)sc[n+]1CCCCS(=O)(=O)[O-] | · | 2.9% | -24.4%[46.1 µM] | -2.3%[46.1 µM] | 6.0% | · | -8.1% | ·
CCc1ccccc1SCc1noc(C(=O)NCC2CCCO2)c1C(=O)O (configuration not stated) | -0.2% | -0.9% | · | · | 0.4% | -5.3% | -14.1% | 19.2%
COCCCNC(=O)C1CCN(Cc2cc3ccccc3n2Cc2cccc(Cl)c2)CC1 | 0.1% | · | · | ? | · | 6.3% | -25.3% | ·
CC1CCN(c2nc(-c3ccc(Br)cc3)nc3ccccc23)CC1 | 0.1% | · | · | -2.4%[46.1 µM] | · | 6.1% | -17.4% | ·
COc1ccc(Cl)cc1C=CC=NNC(=O)c1ccncc1 | · | · | -11.5% | ? | -19.3% | · | -7.3% | ·
CC1(C)N=C(N)N=C(N)N1c1cccc(C(=O)O)c1 | 3.2% | 0.2% | 29.9% | 28.4% | 9.9% | 5.0% | ? | 4.2%
CCOC(=O)CCc1c(C)c2ccc(OCc3ccc([N+](=O)[O-])cc3)cc2oc1=O | 0.4% | -7.9% | 2.7% | 17.8% | -1.1% | 10µM* | 0.9% | 1.3%
NC(=O)COC(=O)C1CSC2(c3ccc(F)cc3)CCC(=O)N12 (configuration not stated) | · | -0.3% | 5.0% | 3.4% | 4.6% | · | -3.7% | 1.8%
CCOc1ccc(CNC(=O)CCCC(=O)n2nc(C)c3ccccc32)cc1 | · | 0.8% | · | · | 6.0% | · | -24.5% | -7.7%
CCCN(C(=O)c1cccc(S(=O)(=O)N2CCN(C)CC2)c1)c1c(N)n(Cc2ccccc2)c(=O)[nH]c1=O | · | · | ? | 12.6% | 13.7% | · | -16.7% | ·
Cc1ccc(OC(C)C(=O)OCC(=O)Nc2sccc2C(N)=O)cc1 (configuration not stated) | · | -22.8% | · | · | 0.9% | · | ? | ·
CCOCCCN(C(=O)Cn1nnc(-c2ccc(OC)c(OC)c2)n1)C(CC)C(=O)NC1CCCC1 (configuration not stated) | · | -3.0% | ? | -12.4% | -6.6% | · | 3.0% | ·
CCOc1ccc(CCNC(=O)C(O)c2ccccc2)cc1 (configuration not stated) | 0.8% | -5.1% | 14.4% | -4.8% | 23.1% | 8.1% | -20.5% | 2.4%
C=CC(C)N1C(=O)S/C(=C\c2ccc(N3CCOCC3)cc2C)C1=O (configuration not stated) | -9.4% | -15.7% | ? | 11.4% | -3.5% | 14.2% | -7.5% | -10.7%
Cc1cc(NC(=O)CSc2nnc(-c3ccco3)n2Cc2ccco2)no1 | -1.3% | 8.1% | 0.2% | 2.6% | -12.1% | -2.5% | -13.5% | -1.9%
CC(C)(CO)NC(=O)C12CC3CC(CC(Br)(C3)C1)C2 | · | -0.2% | 12.7% | 22.5% | -5.4% | · | -5.4% | 2.5%
Cn1cc(CN2CCCC(C(=O)c3cc(F)ccc3F)C2)c2ccccc21 (configuration not stated) | · | -1.7% | 10µM* | ? | -16.8% | · | 6.0% | 0.6%
CSc1ccc(CCNC(=O)CCn2c(=O)c3cccn3c3ccc(F)cc32)cc1 | -0.8% | · | · | 8.8%[46.1 µM] | · | 8.3% | -15.6% | ·
CCOc1ccccc1N(CC(=O)Nc1ccccc1C(=O)NCc1ccco1)S(C)(=O)=O | -3.3% | 2.0% | ? | -23.1% | -15.3% | 24.1% | · | -17.7%
Cc1ccc(NC(=O)CCc2c(C)nc3nc(C)nn3c2C)c(Cl)c1 | 1.3% | · | ? | ? | · | 8.5% | -7.4% | ·
c1coc(CN(Cc2ccco2)c2ncnc3c2oc2ccccc23)c1 | -12.8% | -54.8% | ? | ? | -11.6% | -7.3% | -40.0% | -9.1%[9.22 µM]
CCCCCC1NC(=O)NC1CCCCCC(=O)O (configuration not stated) | 3.2% | 3.9% | 5.0% | 5.7% | -0.7% | 0.2% | -5.0% | 7.9%
COC(=O)c1cc(NS(=O)(=O)c2ccc3c(c2)c(=O)n(C)c(=O)n3C)cc(C(=O)OC)c1 | · | 0.6% | ? | 8.0%[46.1 µM] | -2.1% | · | 9.1% | 16.3%
CCN(CC)S(=O)(=O)c1ccc(Cl)c(OC)c1 | 3.8% | -7.7% | 2.1% | 5.6% | -8.7% | -7.3% | 9.3% | -16.8%
COc1ccc(CSc2nnc(C)n2N)cc1[N+](=O)[O-] | · | 0.2% | ? | 22.5% | 1.5% | · | -4.5% | 5.8%
CC(=O)c1ccc(OCC(=O)NC2CCCCCC2)cc1 | · | 0.8% | -9.5% | 14.4% | 21.1% | · | 0.0% | ·
O=C(CCc1ccccc1)NC1CCSC1=O (configuration not stated) | -4.0% | 0.3% | 19.2% | ? | -7.6% | 1.1% | -7.6% | ?
CC(C)CSc1nc2ccccc2c(=O)[nH]1 | 0.7% | -11.7% | -3.0% | 7.9% | -2.8% | ? | 7.7% | -12.8%
Cn1cnnc1SCC(=O)NC1CCCCCC1 | · | -0.1% | 12.3%[46.1 µM] | 15.6%[46.1 µM] | 11.2% | · | 27.2% | 3.2%
COc1cccc(OC)c1OCC(O)CN1CCN(c2ccccc2F)CC1 (configuration not stated) | · | 1.1% | · | · | 8.9% | · | -28.4% | 3.9%
Cc1ccc2c(c1)C1CN(C)CCC1N2C(=O)COc1ccc(N(C)C(=O)C(C)(C)C)cc1 (configuration not stated) | · | -5.6% | · | -19.7% | -16.9% | · | 50.6%[activator] | ·
CS/C(=N\S(=O)(=O)c1ccc(Cl)cc1)c1ccccc1 | -7.0% | -10.9% | -11.8% | -24.8% | 9.1% | -1.5% | 36.1%[activator] | -12.3%
O=C(Nc1ccccc1Cl)c1ccccc1Cc1ccccc1 | -2.9% | ? | 26.2% | 14.3% | 7.7% | 8.8% | -6.4% | 10.7%
CC(=O)OCC(=O)Nc1ccc([N+](=O)[O-])cc1Cl | · | 2.0% | ? | 26.8%[46.1 µM] | -1.8% | · | -8.1% | ·
NC(=O)NOCc1ccc(Cl)cc1Cl | · | 2.7% | -10.9%[46.1 µM] | ? | 16.3% | · | 8.2% | -1.7%
CC(C)c1ccc(/C=C2\SC(=S)N(CCC(=O)N3CCCCC3CCO)C2=O)cc1 (configuration not stated) | · | -2.8% | · | · | -5.5% | · | 11.2µM* | 16.1%
COc1cc(-c2noc(CCC(=O)Nc3cccnc3)n2)cc(OC)c1OC | -0.4% | 4.7% | 20.2% | 6.4% | 6.6% | 4.6% | -16.7% | -7.1%
COC(CNC(=O)c1cc(S(=O)(=O)N2CCc3ccccc32)ccc1F)OC | · | -3.2% | · | · | -9.5% | · | -17.0% | -0.8%
O=C(C1CCCO1)N1CCN(C(=S)Nc2ccc(F)cc2)CC1 (configuration not stated) | -1.3% | -1.2% | -2.5% | 11.7% | -2.7% | 0.3% | -9.9% | -7.4%

Rows were taken by chance; overall some 4.5% were active at least once.
